# Source: PubChem (National Center for Advancing Translational Sciences (NCATS))
# TsaE inh – displaces an ADP probe from E. coli YjeE (TsaE); hit rate 0.05% among 71,000; purified YjeE, fluorescence polarisation of a bound ADP probe; Potency, µM; P0AF67; AID 605; active = well fitted falling curve; inconclusive = weaker or top-dose-only fall, or a rising curve; inactive = flat or poorly fitted curve;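 also: top concentration of the series not given in the record; excess ADP was the control for the full effect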
#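 Purified YjeE (10 uM) with BODIPY Texas Red-labeled ADP probe (2 uM); compounds pin-transferred, 15 min at room temperature. Binding inhibition read as decreased fluorescence polarization; ADP titration as control.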
# Bst PK mod – alters activity of Bacillus stearothermophilus pyruvate kinase. partly purified Bacillus stearothermophilus pyruvate kinase, luminescence ATP production; ribose 5-phosphate activator present at AC10. hit rate 1.2% among 51,000. AID 361. Potency, µM; in the data active means potency below about 11 µM; inconclusive means mostly about 12 µM to 25 µM; inactive means weaker than that;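 the screen sought inhibitors and activators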;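 also: potency is read from the fitted curve at half-maximal effect; scaled between full activation by ribose 5 phosphate and full inhibition by luteolin; about four in five hits inhibit and the cells do not say which; series up to 57 µM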
# The depositor's hits bear a star; i = inactive; ? = inconclusive; · = not tested or not shown.
SMILES,TsaE inh,Bst PK mod
COc1ccc(C(=O)Nc2ccc(N3CCN(c4ccc(OC)cc4)CC3)c(C#N)c2)cc1,i,>57
O=C(NCc1ccccn1)c1cccs1,i,·
CCn1nc(NC(=O)c2ccncc2)c2cc3ccc(C)cc3nc21,i,·
COc1cc(NC(=O)C2CCCC2)c(OC)cc1Cl,i,·
Cc1cc(NC(=O)CSc2nc3ccccc3c(=O)n2CCCC(=O)NCc2ccco2)n[nH]1,i,>57
CC(CCc1ccccc1)NC(=O)CN1CCN(Cc2ccccc2)C1=O (stereo not drawn),i,>57
CC(=O)Oc1cc2c(C(C)=O)coc2c2ccccc12,i,>57
CC(C)NC(=O)c1cccc(Cn2cc(Cl)cn2)c1,i,>57
CCN(CC)CCN1C(=O)C(O)=C(C(=O)c2sc(C)nc2C)C1c1cccnc1 (stereo not drawn),i,>57
CCC(=O)Nc1cc2nn(-c3ccc(OC)cc3)nc2cc1C,i,3.4*
CCOc1ccccc1OCC(=O)NCc1ccco1,i,>57
C=CCNc1nnc(C)c2ccccc12,i,>57
Cn1c(SCC(=O)O)nc2ccccc2c1=O,i,>57
O=C(CCS(=O)(=O)Cc1ccccc1)NCC1CCCO1 (stereo not drawn),i,>57
CCCCCCc1c(O)c2ccccc2[nH]c1=O,i,>57
COc1cccc(-n2ccnc2SCC(=O)NCc2ccccc2)c1,i,>57
O=C(NCc1cccnc1)NC1(C(F)(F)F)Oc2ccc(Cl)cc2O1 (stereo not drawn),i,·
Cc1noc(C)c1CSc1nc2sc(C)c(C)c2c(=O)n1C1CCCC1,i,>57
O=C(O)C1CC(=O)N(c2ccc(F)c(F)c2)C1 (stereo not drawn),i,>57
CN(C)CCCNC(CC(=O)Nc1ccc(Cl)cc1)C(=O)O (stereo not drawn),i,>57
Cn1c(=O)oc2cc(S(=O)(=O)Nc3ccc4c(c3)OCO4)ccc21,i,>57
CN(C)S(=O)(=O)c1ccc(C(=O)Nc2ccccn2)cc1,i,·
Nc1ccc2c(c1)C(=O)N(CC1CCCO1)C2=O (stereo not drawn),i,>57
CCOc1ccc2nc(NC(=O)CN3CCN(c4ccccn4)CC3)sc2c1,i,>57

# Some of the entries so far, with values under each structure:
# Order of values – TsaE inh, Bst PK mod
> COc1ccc(C(=O)Nc2ccc(N3CCN(c4ccc(OC)cc4)CC3)c(C#N)c2)cc1
→ i, >57
> Cn1c(=O)oc2cc(S(=O)(=O)Nc3ccc4c(c3)OCO4)ccc21
→ i, >57
> CCC(=O)Nc1cc2nn(-c3ccc(OC)cc3)nc2cc1C
→ i, 3.4*
> CC(C)NC(=O)c1cccc(Cn2cc(Cl)cn2)c1
→ i, >57
> COc1cc(NC(=O)C2CCCC2)c(OC)cc1Cl
→ i, ·
> CCCCCCc1c(O)c2ccccc2[nH]c1=O
→ i, >57
> C=CCNc1nnc(C)c2ccccc12
→ i, >57

# Going on with the list:
SMILES,TsaE inh,Bst PK mod
CCOC(=O)N1CCC(NC(=O)c2sc3nc4n(c(=O)c3c2C)CCCC4)CC1,i,>57
CCOC(=O)c1ccc(NC(=O)C2CCN(S(=O)(=O)c3ccccc3)CC2)cc1,i,·
O=C1CC2CS(=O)(=O)CC2N1C1CCCCC1 (stereo not drawn),i,·
Cc1ccc(-c2noc(-c3cccs3)n2)cc1,i,·
Cc1cnc(NC(=O)CSc2nnc(Cc3ccccc3)n2C)s1,i,>57
CCOC(=O)C1(C(F)(F)F)N=C(N(C)C)OC(N(C)C)=N1,i,>57
COc1cc(C(=O)OCC(=O)NC2CCCC2)cc(NC(=O)c2ccco2)c1OC,i,>57
O=C(CC1SC2=NCCN2C1=O)Nc1ccc(Cl)cc1 (stereo not drawn),i,>57
COc1cc2cc(C)c3nnc(SCC(N)=O)n3c2cc1OC,i,·
CCOC(=O)c1[nH]c2cc3c(cc2c1CCCN1C(=O)c2ccccc2C1=O)OCCO3,i,>57
CCCSc1nc2c(cnn2-c2ccc(C)cc2)c(=O)[nH]1,i,·
CCc1cccc(NC(=O)CN(c2ccc(OC)cc2)S(=O)(=O)c2c(C)n[nH]c2C)c1,i,>57
CC(C)OC(=O)c1ccc(N2C(=O)C3CC=CCC3C2=O)cc1 (stereo not drawn),i,>57
Cc1c(NC(=O)CSc2nc3ccccc3n2C)c(=O)n(-c2ccccc2)n1C,i,·
Clc1ccc(CCNc2ncnc3nc[nH]c23)cc1,i,·
CCN1CCN(Cc2c(O)c(Cl)cc3c(C)cc(=O)oc23)CC1,i,·
COc1ccc(Nc2ncnc3c2cnn3-c2ccccc2)cc1OC,i,·
O=C(Nc1ccc(N2CCOCC2)c(Cl)c1)c1cccc(F)c1,i,>57
Cc1cc2ncn(C3CC(=O)N(Cc4ccccc4)C3=O)c2cc1C (stereo not drawn),i,>57
CCOC(=O)c1ccc2[nH]c(C)cc(=O)c2c1,i,·
CCC(=O)Nc1cc(NC(=O)CSc2ncc(-c3ccc(F)cc3)n2Cc2ccco2)ccc1C,i,>11
CC(=O)Cc1nsc(NC(=O)c2ccc(Br)o2)n1,i,>57
CN(C(=O)COc1nnc(-c2cccs2)c(-c2cccs2)n1)c1ccccc1,i,?
COc1ccc(CNC(=O)C2CCCN(S(=O)(=O)c3cc(C)ccc3OC)C2)cc1 (stereo not drawn),i,>57
COc1ccc(CCNC(=O)CSc2nnc(CNC(=O)c3cccs3)o2)cc1OC,i,>57
Clc1ccc2c(c1)N=C(N1CCNCC1)c1ccccc1N2,i,·
Cc1ccnc(NC2c3ccccc3C(=O)N2Cc2ccccc2Cl)c1 (stereo not drawn),i,·
O=C(c1ccco1)N1CCN(C(=O)c2snc3ccc(Cl)cc23)CC1,i,i
CCOC(=O)C1CCN(C(=O)c2ccc(OCC)c(OCC)c2)CC1,i,>57
CCN1C(=O)c2ccccc2S(=O)(=O)c2ccc(C(=O)NCc3cccnc3)cc21,i,·
COc1ccccc1NC(=O)c1ccccc1SC,i,>57
Cc1ccc(-c2nnc(CSc3nnc(C)s3)o2)cc1,i,>57
C=CCn1c(C)cc(C(=O)COC(=O)COc2ccccc2C#N)c1C,i,·
N#Cc1nc(-c2ccc(OCc3ccccc3Cl)cc2)oc1NCCCn1ccnc1,i,2.6*
Cc1cc(CC(=O)O)c(C)cc1CC(=O)O,·,>26
CC(=O)c1sc(NC(=O)CN2C(=O)CCC2=O)nc1C,i,>57

# Full records as entered above. Order of screens: TsaE inh | Bst PK mod
# `Cc1ccnc(NC2c3ccccc3C(=O)N2Cc2ccccc2Cl)c1` (stereo not drawn) reads i | ·
# `CCN1C(=O)c2ccccc2S(=O)(=O)c2ccc(C(=O)NCc3cccnc3)cc21` reads i | ·

# Further records:
SMILES,TsaE inh,Bst PK mod
CCCS(=O)(=O)NCCc1cc2ccc(OC)cc2[nH]c1=O,i,·
Cc1oc2cc(OCC(=O)O)ccc2c(=O)c1Oc1ccccc1,i,>57
CCN(CC)CCSc1nc(O)c(C(C)C)c(=O)[nH]1,i,>57
O=C(Cn1cc2c(n1)CCCCC2)NCCCN1CCOCC1,i,·
Cc1cc2c(=O)n(NC(N)=O)c(C)nc2s1,i,>57
O=C(C(c1ccccc1)c1ccccc1)N1CCN(Cc2ccncc2)CC1,i,·
Cc1nnc(SCC(=O)N2CCN(S(=O)(=O)c3ccccc3)CC2)n1Cc1ccccc1,i,>57
COc1ccc(NC(=O)C23CCC(C)(C(=O)O2)C3(C)C)cc1 (stereo not drawn),i,>57
CCCCOC(=O)CSC1=C(C#N)C(c2ccccc2OC)C(C#N)C(=O)N1 (stereo not drawn),·,>26
O=C(Nc1cnn(C23CC4CC(CC(C4)C2)C3)c1)c1cnn2c(C(F)(F)F)cc(-c3ccco3)nc12,i,>57
CCCCc1nc2ccccc2c(=O)n1NC(=O)c1c(O)c2c(n(CC(C)C)c1=O)CCCC2,i,>57
Cn1c(NCc2ccco2)nc2c1c(=O)n(Cc1ccc(Br)cc1)c(=O)n2C,i,>57
COC(=O)N1CCC2(CCN(C(=O)Nc3cccc(F)c3)CC2)CC1,i,·
Cc1cc(C)n(-c2nnc3n2N=C(c2c[nH]c4ccccc24)CS3)n1,i,>57
CCCCn1cc(SCC(=O)O)c2ccccc21,i,>57
CCOc1ccc(Cc2nc(C)c(CC(=O)N3CCCCC3)c(=O)[nH]2)cc1,i,>57
CCCCn1c(SCC(=O)Nc2ccc3c(c2)OCO3)nc2c1c(=O)n(C)c(=O)n2C,i,>57
CN1C(=O)C(O)(C2COC(C)(C)CC2=O)c2ccccc21 (stereo not drawn),i,·
COc1ccc2[nH]cc(CCNc3ccnc(-c4ccc5c(c4)OCO5)n3)c2c1,i,·
Cc1[nH]nc2c1C1(CCN(C(=O)c3ccccc3)CC1)C(C#N)=C(N)O2,i,>57
CCOC(=O)c1[nH]c2ccc(C)cc2c1N,·,>26
CCC(CC)C(=O)NCCc1cc2ccc(C)cc2[nH]c1=O,i,·
Cc1ccc(C)c(NC(=O)CSc2nnc(-c3ccccc3)o2)c1,i,·
CCCCS(=O)(=O)c1sc2nc3c(cc2c1N)CCCC3,i,>57
Cc1c(C(=O)OCC(=O)c2c(N)n(CC(C)C)c(=O)n(C)c2=O)oc2ccccc12,i,>57
Cc1ccc2nc3c(cc(C(=O)NCC4CCCO4)c(=N)n3CCCOC(C)C)c(=O)n2c1 (stereo not drawn),i,>57
COC(=O)c1cc(Br)c(=O)n(-c2ccc(C(C)=O)cc2)c1,i,>57
CN(C)CCOC(=O)C1(c2ccccc2)CCOCC1,i,>57
O=C(O)c1cnn(-c2ccccc2)c1-n1cccc1,i,·
Cn1c(=O)c(-c2cc(F)cc(F)c2)nc2cnc(Nc3ccccc3)nc21,i,·
CC(C)c1nnc(N2C(=O)c3oc4ccccc4c(=O)c3C2c2ccco2)s1 (stereo not drawn),i,>57
COc1ccc(-n2c(Cn3nnc4ccccc43)nnc2SCC(=O)O)cc1,i,>57
Cc1ccc(S(=O)(=O)NC(=O)Nc2cc(C)ccc2F)cc1,i,·
Cc1ccc(/C=N/n2nnnc2N)o1,·,>26
COc1ccc(C(=O)N2CCC3(CC2)CN(Cc2ccc(C#N)cc2)C3)cc1,i,·
O=C(c1cc2nc3c(c(C(F)(F)F)n2n1)CCc1ccccc1-3)N1CCN2CCCC2C1 (stereo not drawn),i,>57
CN1C(=O)N(c2ccccc2)C(Nc2nncs2)C1(C)C (stereo not drawn),·,>26
Cc1nc(-c2ccccc2)cc(N2CCCC2)n1,i,·
CCOC(=O)c1cnc(-n2nc(C)cc2C)nc1N(CC)CC,i,·
COc1ccc(NC(=O)c2ccco2)c(NC(=O)Cc2cccs2)c1,i,>57
N#Cc1nc(COc2ccc(-c3ccccc3)cc2)oc1NCc1cccnc1,i,>57
COc1ccc(N2CCN(C(=O)COc3ccccc3)CC2)cc1,i,·
O=C(NC1CCCCC1)C(c1ccccc1)N1CCCC1 (stereo not drawn),i,>57
N#CC1=C(N)Oc2cc(O)ccc2C1c1ccccc1 (stereo not drawn),i,·
CC12CCC(=O)N1C(C(=O)Nc1cccc3ccccc13)CS2 (stereo not drawn),i,>57
O=C(CSc1ccc2nnc(-c3ccncc3)n2n1)Nc1ccccc1F,i,·
COC(=O)c1cc2occc2n1CC(=O)Nc1ccc(OC)c(OC)c1OC,i,>57
C=C(C)[C@@H]1CC=C(C(=O)O)CC1,i,·
CC(C)[C@@H](CC(=O)N[C@@H]1CCCC[C@H]1C(=O)N[C@H](CC(=O)N[C@@H](CCC(=O)O)CC(=O)O)Cc1ccccc1)NC(=O)C[C@H](Cc1ccccc1)NC(=O)[C@@H]1CCCC[C@H]1N,i,·
COCC(=O)N1CCC2(CC1)CN(Cc1ccccc1OC)C2,i,·
COc1ccc(OCCCC(=O)Nc2ccc3c(c2)OCCO3)cc1,i,·
COC(=O)Nc1ccccc1C(=O)N1CCCCC1,i,>57
CC(C)OCP(=O)(c1ccccc1)c1ccccc1,i,·
CCOc1cc2c(cc1OCC)C(c1cc(OC)c(O)c(OC)c1)NCC2 (stereo not drawn),i,>57
O=C(c1ccc2nc(N3CCCCC3)sc2c1)N1CCN(c2ccccn2)CC1,i,·
CCN1CCN(CC(=O)n2c3c(c4ccccc42)CC(C)CC3)CC1 (stereo not drawn),i,·
COc1cc(CC(=O)Nc2nccs2)cc(OC)c1OC,i,>57
COC(=O)C(NC(C)=O)(Nc1nc2ccc(S(C)(=O)=O)cc2s1)C(F)(F)F (stereo not drawn),·,>26
O=C(NCc1ccc2c(c1)OCO2)c1cc2c(s1)CS(=O)(=O)C2,i,>57
Cc1cc(NC(=O)c2ccc(Cn3nc(C)c(Br)c3C)o2)no1,i,>57

# Continuation:
SMILES,TsaE inh,Bst PK mod
CCOC(=O)Nc1cc(OCC)c(NC(=O)C2CC2)cc1OCC,i,>57
O=C(c1ccccc1)c1ccc(N2CCOCC2)c(F)c1,i,·
Cc1cc(NC(=O)COC(=O)C2CCCN2C(=O)c2cccs2)no1 (stereo not drawn),i,>57
CCCOc1ccccc1C(=O)NCCCC(=O)O,·,>26
COc1ccc(S(=O)(=O)NCCc2ccc(F)cc2)cc1,i,·
CC(=O)Nc1ccc(S(=O)(=O)N2CCN=C2C)cc1,i,>57
O=C(c1noc2c1CCCCC2)N1CCN(C(c2ccccc2)c2ccccc2)CC1,i,>57
CC1CCN(Cc2nc3c(c(=O)n(C)c(=O)n3C)n2Cc2c(F)cccc2Cl)CC1,i,>57
O=C(c1ccccc1)N1CCN(C2CC3CCC2C3)CC1 (stereo not drawn),i,>57
C/C(Nc1cccc(F)c1)=C(/C#N)C(N)=O,i,>57

# Only part of the results is shown; rates above refer to the full screens.
